# Cruzain inh Det = blocks cruzain activity in presence of Triton detergent. actives 0.43% (n = 200,000). Potency, µM, for inactives: max response, negative = inhibition, actives largely listed as inhibitors. purified cruzain, Z-FR-AMC fluorescence, 0.01% Triton. P25779;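 note: plate controls were neutral wells for no effect and buffer without enzyme for full effect; nearly all actives have a fitted effect of over 40% in size; top concentration of the series not given in the record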
# Target sequence (P25779 123-467 limits assumed): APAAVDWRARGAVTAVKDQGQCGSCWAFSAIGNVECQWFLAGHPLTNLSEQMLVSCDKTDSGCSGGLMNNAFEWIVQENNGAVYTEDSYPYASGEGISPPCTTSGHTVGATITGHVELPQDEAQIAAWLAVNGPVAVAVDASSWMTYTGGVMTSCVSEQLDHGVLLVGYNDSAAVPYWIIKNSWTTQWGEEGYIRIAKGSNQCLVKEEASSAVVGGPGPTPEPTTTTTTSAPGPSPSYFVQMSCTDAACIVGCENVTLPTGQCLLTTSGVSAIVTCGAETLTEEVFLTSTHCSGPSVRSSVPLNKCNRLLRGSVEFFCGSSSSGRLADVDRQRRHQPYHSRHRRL
#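 In this qHTS format, compounds are incubated with 1.5 nM cruzain for 15 min at room temperature before 2 uM Z-FR-AMC is added. Release of AMC is followed at 360/450 nm, and progress is taken as the 60 s fluorescence difference.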
# 2A StopGo = lowers the luciferase signal of an FMDV 2A StopGo reporter; human cells with a luciferase reporter of 2A StopGo recoding; control for the full effect not named in the record; Potency, µM (doses to about 57.9 µM), without a hit: at the top dose signal change, negative = less light; actives 1.2% (n = 410,000); AID 1159524; active = well fitted falling curve with a large enough effect; inconclusive = small, poorly fitted or top-dose-only effect; inactive = no such curve, though single readings can be large or run the other way; tested in HEK293T cells; note: % is set by controls: 0 for no effect and ±100 for the full control effect; nearly all actives have a fitted effect of over 45% in size; luciferase light after 4 h
# LASV entry inh = inhibitors of Lassa virus binding or cell entry | Lassa virus pseudotype entry inhibition, cell reporter; control for the full effect not named in the record | Potency, µM (highest dose often 37.9 µM), without a hit: top-dose activity change, negative = inhibition, usual class: inhibitors | actives 1.2% (n = 300,000); active means well fitted inhibition curve with a large enough effect; inconclusive means small, poorly fitted or top-dose-only effect, or effect the other way; inactive means flat fitted curve, though single readings scatter; tested in HEK293 cells; note: % is set by controls: 0 for no effect and ±100 for the full control effect; nearly all actives have a fitted effect of over 50% in size; luciferase read-out
# SARS PLP yeast = blocks SARS-CoV papain-like protease in a yeast assay. S. cerevisiae expressing SARS-CoV PLpro, growth rescue; control for the full effect not named in the record. Potency, µM (highest dose often 32.9 µM), inactives show at the top dose activity, positive = growth rescue. actives 0.19% (n = 330,000); active means well fitted rising curve with a large enough effect; inconclusive means small, poorly fitted or top-dose-only effect; inactive means no such curve, though single readings can be large or run the other way; note: 0% is about no effect; nearly all actives have a fitted effect of over 55% in size; growth read by luminescence after 48 h
# RE007 growth inh = less growth of the S. pombe RE007 Vpr strain | AID 651644 | S. pombe RE007 Vpr strain, BacTiter-Glo ATP luminescence, 24 h; control for the full effect not named in the record | Potency, µM (highest dose often 92.2 µM), for the others: top-dose activity change, negative = less growth | actives 0.21% (n = 360,000); active = well fitted falling curve with a large enough effect; inconclusive = small, poorly fitted or top-dose-only effect; inactive = no such curve, though single readings can be large or run the other way;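 note: % is set by controls: 0 for no effect and ±100 for the full control effect; nearly all actives have a fitted effect of over 50% in size; the assay follows cell death caused by Vpr and the record does not say whether a fall means rescue or toxicity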
#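 Fission yeast RE007 carrying one integrated HIV-1 vpr copy, seeded at OD 0.01 in PMG+AL medium with 23 nL pinned compound. Grown 24 h at 30 degrees; viability read by BacTiter-Glo luminescence after 5 min.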
# NS1 inh = influenza NS1 inhibition; actives 0.4% (n = 270,000); S. cerevisiae slowed by influenza A NS1, growth recovery by OD600; Potency, µM (titrated, usually from 46.1 µM), without a hit: at the highest dose activity, positive = more growth; active means well fitted rising curve with a large enough effect; inconclusive means small, poorly fitted or top-dose-only effect; inactive means no such curve, though single readings can be large or run the other way; note: nearly all actives have a fitted effect of over 50% in size
#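 Growth recovery, yeast-based: influenza A NS1 expressed in S. cerevisiae causes slow growth, and suppressors are detected by OD600. The parent strain without NS1 is used as positive control.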
# Cruzain inh noDet = inhibitors of Trypanosoma cruzi cruzain without detergent; P25779; purified cruzain, Z-FR-AMC fluorescence, no detergent; Potency, µM, for inactives: max response, negative = inhibition, actives largely listed as inhibitors; actives 2.3% (n = 200,000); AID 1476;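 note: plate controls were enzyme without inhibitor for no effect and buffer without enzyme for full effect; nearly all actives have a fitted effect of over 40% in size; top concentration of the series not given in the record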
#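 Purified cruzain at 1.5 nM, pre-incubated 15 min with compound at room temperature in 100 mM sodium acetate pH 5.5, 5 mM DTT, 0.00005% Triton X-100. Reaction started with 2 uM Z-FR-AMC; AMC fluorescence increase over 60 s gives rate.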
# Marburg entry inh = blocks Marburg virus binding to or entry into cells; Marburg virus pseudotyped entry inhibition, cell reporter; control for the full effect not named in the record; about a third of the inactives were read at about 46 µM; Potency, µM (doses to about 37.8 µM), without a hit: top-dose activity change, negative = inhibition, actives largely listed as inhibitors; actives 1.8% (n = 300,000); AID 540276; active = well fitted inhibition curve with a large enough effect; inconclusive = small, poorly fitted or top-dose-only effect, or effect the other way; inactive = flat fitted curve, though single readings scatter; tested in HEK293 cells; about a fifth of its hits are not listed in these tables; note: % is set by controls: 0 for no effect and ±100 for the full control effect; luciferase read-out
# An asterisk follows results filed as active; ? = inconclusive; nt = no result given; & = joins results of further samples; [ ] = dose if it differs, or a comment. Unless noted, calls come from the whole dose curve; as a rule, active = well fitted curve in the direction sought with a large enough effect; inconclusive = small, poorly fitted or top-dose-only effect, or another doubt; inactive = no such curve, though single readings can be large; an effect the other way counts as inactive or inconclusive. Potency is the fitted concentration of half-maximal effect. No enrichment for hits; 4.7% or so of the library scored in one or more.
SMILES,Cruzain inh Det,2A StopGo,LASV entry inh,SARS PLP yeast,RE007 growth inh,NS1 inh,Cruzain inh noDet,Marburg entry inh
CCCCCOC(=O)c1ccc(N2C(=O)C3C4C=CC(C4)C3C2=O)cc1 (stereo not given),-5.1%,nt,-8%,0%,-4%,-6%,16%,0%
CCOC(=O)N1CCc2c(sc3c2c(=O)n(-c2ccc(CC)cc2)c(=O)n3C)C1,-0.9%,-15%,4%[46.1 µM],nt,nt,nt,-3%,-12%[46.1 µM]
CCCC(=O)Nc1cc(C)c(NC(=O)c2ccccn2)cn1,3.0%,44%[activator],24%,6%,-2%,0%,2%,8%[46.1 µM]
C=CCNC(=S)NNC(=O)c1cccn(Cc2cccc(Cl)c2)c1=O,1.7%,6%,6%,-2%,16%,1%,-2%,?
Cc1cc(NS(=O)(=O)c2ccccc2)c(C)c(Cl)c1O,1.8%,-6%,0%,-10%,-12%,2%,-6%,?
CC(NC(=O)Cc1cccs1)C(c1cccs1)N1CCN(c2ccccc2F)CC1 (stereo not given),-10%,-25%,?,-15%,-3%,-52%,-21%,?
Cc1ccccc1Nc1ccc([N+](=O)[O-])cn1,nt,15%,?,-3%,-9%,-8%,nt,-13%
CC(C)CSc1nnc2[nH]c(=O)cc(N)n12,-2.1%,9%,14%,12%,-3%,10%,4%,9%
O=C(O)/C=C/c1cn(Cc2ccccc2)nc1-c1ccccc1,-0.4%,-9%,-8%,2%,17%,8%,-11%,15%
O=C(CSc1nnc(COc2ccccc2)n1-c1ccccc1)c1cccs1,-4.2%,0%,?,-7%,-23%,-50%,-2%,-22%
O=C(Nc1ccc(Br)cn1)c1ccc2ccccc2c1,nt,22%,nt,2%,-18%,0%,nt,nt
O=C(O)/C(=C\c1ccc(-c2ccccc2[N+](=O)[O-])o1)c1ccccc1,nt,6%,nt,0%,-14%,-14%,nt,nt
CN(C)/C=C/C(=O)c1ccc(Cl)c([N+](=O)[O-])c1,nt,12%,0%,0%,-17%,-1%,nt,-9%[46.1 µM]
COC(=O)C1=C(C)N(CC(C)C)C(=O)C1,2.9%,nt,-4%,1%,-2%,5%,?,11%
c1ccc2c(c1)OCC(c1nnc3n1-c1ccccc1SC3)O2 (stereo not given),-2.4%,-24%,9%,-8%,-22%,-57%,2%,?
O=C(N1CCOCC1)N1CCOCC1,1.0%,-3%,12%,3%,-4%,1%,5%,9%
COCCn1c(SCC(=O)N2CCCC2)nc2c([nH]c3ccccc32)c1=O,nt,-12%,nt,3%,5%,8%,nt,nt
Cc1ccc(-c2nc(S(=O)(=O)c3ccc(C)cc3)c(SCC(=O)c3ccccc3)o2)cc1,-5.3%,0%,?,nt,nt,nt,16µM*,?
Cc1cc2nc(-c3ccc(OCc4ccccc4C)cc3)cc(C(F)(F)F)n2n1,-1.6%,-26%,-7%[46.1 µM],nt,nt,nt,-14%,3%[46.1 µM]
Cc1cc(C(=O)COc2ccccc2[N+](=O)[O-])c(C)n1C1CC1,nt,43%[activator],12%[46.1 µM],-8%,-19%,nt,nt,21%[46.1 µM]
CCOP(=S)(OCC)c1ccc(N(C)C)cc1,3.2%,-11%,-5%,1%,8%,-5%,-9%,11%
CCOC(=O)CNC(=O)N1c2ccccc2Sc2ccccc21,nt,35%[activator],nt,-1%,5%,-3%,nt,nt
O=C(NCC1CCCO1)C(=O)N/N=C/c1c(F)cccc1Cl (stereo not given),nt,41%[activator],-12%[46.1 µM],0%,-7%,1%,nt,11%[46.1 µM]
COc1ccc(-c2cc(C3CCN(Cc4cccc(C(F)(F)F)c4)CC3)[nH]n2)cc1,nt,?,?,1%,12%,nt,nt,10µM*
Cc1cc(C)nc(N2CCCC(C(=O)NCCc3cccc(F)c3)C2)n1 (stereo not given),4.4%,-14%,-3%,2%,0%,-4%,-6%,-3%
# The listing continues:
SMILES,Cruzain inh Det,2A StopGo,LASV entry inh,SARS PLP yeast,RE007 growth inh,NS1 inh,Cruzain inh noDet,Marburg entry inh
CC(=O)c1ccc(-n2c(CCC(=O)O)ccc2-c2cccs2)cc1,-14%&-3.3%,-7%,22%[46.1 µM],-8%,-22%,25%,-17%&-6%,9%[46.1 µM]
CCCn1c(=N)c(C(=O)NCc2ccc3c(c2)OCO3)cc2c(=O)n3cccc(C)c3nc21,-7.0%,0%,5%,5%,-20%,-11%,0%,-21%
OC(CNc1nc2ccccc2s1)c1ccccc1 (stereo not given),0.6%,16%,?,-7%,-21%,-1%,2%,15%
O=C(NCc1nc(-c2ccc(C(F)(F)F)cc2)no1)Nc1cc(Cl)cc(Cl)c1,nt,?,nt,-9%,10%,-2%,nt,nt
CCCCn1c(-c2ccc(S(=O)(=O)N3CCOCC3)cc2)csc1=Nc1ccccc1,-0.9%,0%,-9%[46.1 µM],nt,nt,nt,-2%,nt
CC(C)(C)NC(=O)CN(Cc1cccnc1)C(=O)c1csnn1,-1.2%,-19%,-1%,14%,-6%[3.69 µM],5%,5%,12%
Cc1cc(=O)[nH]c(NN=C2C3CC4CC(C3)CC2C4)n1,nt,-13%,nt,0%,3%,-2%,nt,nt
COc1ccc(CC2(CO)CCN(Cc3cc4ccccc4o3)CC2)cc1,nt,?,0%[46.1 µM],1%,-13%,-1%,nt,?
Cn1cc(Cl)c(C(=O)Nc2cnn(Cc3ccc(F)cc3)c2)n1,-4.1%,1%,?,-2%,16%,-15%,0%,?
CC(=O)c1cccc(NC(=O)Cn2c(-c3cncs3)nc3ccccc32)c1,-4.6%,-13%,1%[46.1 µM],nt,nt,nt,10%,nt
O=[N+]([O-])c1cc(-c2nnc(Nc3ccc(O)cc3)c3ccccc23)ccc1N1CCOCC1,-10%,20µM*,?,21%,1%,5%,-3%,?
CCOC(=O)COc1ccccc1-c1ccno1,?,0%,?,-6%,-25%,-68%,25µM*,17%
CCn1c(NCc2cc(Br)ccc2NS(=O)(=O)c2ccc(C)cc2)nc2ccccc21,8.8%,3%,?,0%,-7%,0%,?,?
O=C(Nc1ccccc1C(=O)N/N=C/c1ccco1)c1ccc(F)cc1,-7.0%,12%,11%,-66%,22µM*,13%,-9%,-16%
CCN(CC(=O)Nc1ccc(OC)cc1)C(=O)c1cc([N+](=O)[O-])ccc1N1CCOCC1,nt,-14%,-3%,-3%,-1%,nt,nt,-25%
COCC(=O)/C=C1\Sc2ccccc2N1C,-6.2%,nt,-2%,-1%,2%,1%,-12%,23%
c1csc(-c2nnc(N3CCOCC3)c3ccccc23)c1,nt,2%,-11%,0%,13%,-11%,nt,-1%[46.1 µM]
COc1ccc(OCC(=O)Nc2nc3c(s2)CCCC3)cc1,nt,10%,nt,-7%,?,-29%,nt,nt
Cc1cccc(CN2C(=O)CN=C(c3ccccc3)c3ccccc32)c1,-0.5%,?,?,nt,nt,nt,-6%,nt
COc1ccc(C(=O)NNC(=O)c2ccccc2[N+](=O)[O-])cc1,-3.8%,25%,7%,4%,-7%,6%,-7%,?
O=C(c1cccc(C(F)(F)F)c1)C1CCCN(C(=O)CCn2cnnn2)C1 (stereo not given),nt,-20%,26%,2%,-12%,3%,nt,-3%[46.1 µM]
Cc1cc(Nc2nc3ccccc3nc2Cl)n(-c2ccccc2)n1,-15%,?,?,-8%,-3%,0%,9%,?
CC(C)CN1CCNC(=O)C1CC(=O)NCCc1cnn(-c2ccccc2)c1 (stereo not given),nt,-5%,10%,0%,-26%,6%,nt,9%[46.1 µM]
Cc1oc2ccc(OC(=O)N(C)C)cc2c1C(=O)OC(C)C,-4.9%,-22%,?,-40%,?,-105%,-5%,-25%
Cc1ccc(-n2c(C)cc(C(=O)NS(=O)(=O)c3ccc(C)cc3)c2C)cc1,-17%,9%,4%[46.1 µM],-65%,8%,4%,-3%,-5%[46.1 µM]
# Additional records.
SMILES,Cruzain inh Det,2A StopGo,LASV entry inh,SARS PLP yeast,RE007 growth inh,NS1 inh,Cruzain inh noDet,Marburg entry inh
COc1ccc(-c2[nH]n(-c3ccc([N+](=O)[O-])cc3)c(=O)c2C=NCc2ccc(F)cc2)cc1,-5.6%,?,-10%,5%,nt,4%,25µM*,?
CCOc1ccc(C2Nc3ccccc3-c3nnc(SCc4ccccc4)nc3O2)cc1OC (stereo not given),-9.0%,26%,6%[46.1 µM],nt,nt,nt,5%,8%[46.1 µM]
Cc1nn(Cc2cccc(C(=O)NC34CC5CC(CC(C5)C3)C4)c2)c(C)c1Br,-5.9%,?,?,-52%,6%,-19%,?,?
Cn1c(=O)c2c(nc(Sc3ncccn3)n2Cc2ccc(Cl)cc2)n(C)c1=O,-2.7%,?,nt,3%,7%,6%,28%,nt
Cc1nc(N2CCN(S(=O)(=O)c3ccccc3)CC2)c2c3c(sc2n1)CC(C)CC3 (stereo not given),1.4%,-9%,-3%,2%,2%,-16%,?,9%
COc1ccc(NC(=S)N2CCN(C(c3ccccc3)c3ccccc3)CC2)cc1OC,-2.8%,-8%,-4%,-2%,nt,10%,?,?
CC[n+]1c(/C=C/C=C/N(C(C)=O)c2ccccc2)sc2cc(OC)ccc21,-21%,?,?,-7%,-22%,7%,-18%,?
O=C(CO/N=C\c1ccccc1)Nc1ccccc1C(=O)N1CCOCC1,2.4%,?,-23%,-29%,1%,15%,-1%,-8%
Cc1ccc(NC2=C(N3CCOCC3)C(=O)c3ccccc3C2=O)cc1,-20%,nt,?,-20%,?,10%,0%,?
COc1cc(=O)n(C)c2c(OCC(O)C(C)(C)O)cccc12 (stereo not given),-6.7%&2.6%,nt,nt,nt,-2%[18.4 µM],-9%,-1%&0%,36%&36%&36%&36%
Cc1cccc(NC2=NC(=S)N(c3cccc(C(=O)O)c3)C23CCCCC3)c1,nt,5%,nt,1%,-10%,5%,nt,nt
Cc1ccc(-n2c(SCC(=O)Nc3ccc(C(=O)O)cc3)nnc2-c2ccncc2)cc1,nt,0%,11%,0%,1%,1%,nt,21%
CN1CCN(NC(=O)c2ccc(Cl)s2)CC1,nt,3%,8%,0%,-12%,nt,nt,-3%
O=C(COc1cccc(Cl)c1)Nc1ccc2c(c1)CCC2,-7.1%,23%,8%,-37%,?,-6%,-5%,-2%
COC(=O)c1ccccc1NC(NC(=O)c1ccco1)C(=O)c1ccccc1 (stereo not given),-2.2%,-6%,5%,-6%,16%,2%,14%,1%
NC1=NC(=O)/C(=C/c2ccc(Cl)cc2Cl)S1,nt,11%,-13%[46.1 µM],1%,-4%,0%,nt,-2%[46.1 µM]

# Source: PubChem BioAssay (National Center for Advancing Translational Sciences (NCATS))
